Compound activity: PubChem BioAssay, Broad Institute
Calb FLC: C. albicans growth modulation with fluconazole. AID 1979. C. albicans CaCi-2 (fluconazole-resistant clinical isolate) + fluconazole, Alamar Blue growth, 48 h. 0.57% of 300,000 active. growth inhibition, % (test concentration not listed);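 active means most replicates above 75%; inconclusive means exactly half above 75%; inactive means most below 75%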;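 further: all wells also contain fluconazole at 8 µg/ml as a sub-toxic cotreatment; 0% = median of DMSO wells and 100% = median of geldanamycin control wells; wells of about 8 µL received 7.5 nL stock; the first replicate is given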
AF4-AF9 inh: MLL-AF4/AF9 protein interaction inhibition; P42568; AlphaScreen, biotin-AF4 peptide binding to FLAG-AF9; inhibition, % at 10 µM; 0.47% of 350,000 active;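 active means every replicate reaching a set inhibition limit, whatever the replicate mean, cut at about 25% in these data; inconclusive means mean inhibition reaches that limit but some replicates miss it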;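 further: 0% = plate neutral control median and 100% = total signal loss; the record names both 10 and 1 µM as test concentration; the first replicate is given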
Target sequence (P42568 whole entry, looked up): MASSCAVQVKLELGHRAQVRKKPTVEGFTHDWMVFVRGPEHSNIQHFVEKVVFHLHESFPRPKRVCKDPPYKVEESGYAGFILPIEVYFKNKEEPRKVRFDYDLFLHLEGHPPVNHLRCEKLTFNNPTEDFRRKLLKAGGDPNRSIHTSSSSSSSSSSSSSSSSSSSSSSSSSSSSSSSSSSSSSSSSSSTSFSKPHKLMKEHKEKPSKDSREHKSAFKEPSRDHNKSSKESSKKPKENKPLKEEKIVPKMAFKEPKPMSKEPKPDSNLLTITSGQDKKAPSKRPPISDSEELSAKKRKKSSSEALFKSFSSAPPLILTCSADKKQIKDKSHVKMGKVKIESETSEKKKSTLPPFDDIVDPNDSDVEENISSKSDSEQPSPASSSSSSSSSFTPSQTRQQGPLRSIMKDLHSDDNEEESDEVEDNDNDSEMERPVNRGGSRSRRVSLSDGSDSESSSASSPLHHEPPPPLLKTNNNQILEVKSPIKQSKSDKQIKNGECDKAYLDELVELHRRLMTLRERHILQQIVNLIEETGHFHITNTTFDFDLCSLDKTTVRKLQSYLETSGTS
RanGTP-Impb inh: disruptors of Ran-importin-beta complex formation – biochemical, FRET, CFP-Ran, YFP-importin-beta, homogeneous, primary screen | cell-free CFP-Ran/YFP-importin-beta FRET ratio | inhibition, % (test concentration not listed) | 1.1% of 300,000 active;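 active means most replicates above 15%; inconclusive means exactly half above 15%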;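 further: 0% = DMSO wells and 100% = Ran loaded with GDP instead of GTP; wells of about 40 µL received 100 nL stock; the first replicate is given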
ALR H2O2 inh: inhibitors of human sulfhydryl oxidase ALR; purified ALR, DTT oxidation, H2O2 HRP-luminol luminescence; AID 485317; 3.8% of 290,000 active; inhibition, % (no concentration beside the values); P55789;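 active means mean and each replicate at 75% or more; inconclusive means only one of the two met; inactive means neither met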;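 further: stock transfer was 7.5 nL into about 7.5 µL; 0% = neutral wells and 100% = wells with inactivated enzyme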
Target sequence (P55789 whole entry, looked up): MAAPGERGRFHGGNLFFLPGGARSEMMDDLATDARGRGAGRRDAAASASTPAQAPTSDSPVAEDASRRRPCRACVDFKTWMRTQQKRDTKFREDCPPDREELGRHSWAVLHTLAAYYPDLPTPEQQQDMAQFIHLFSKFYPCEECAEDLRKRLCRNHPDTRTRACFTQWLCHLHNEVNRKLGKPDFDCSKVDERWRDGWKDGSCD
FGF22 binding: binders of recombinant human FGF22 by thermal shift. Q9HCT0. SYPRO orange fluorescence; percent of sucrose octasulfate shift, DMSO zero. calls only at 9.99 µM. 1.5% of 340,000 active;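 active means melting point raised past a set limit in the mean and every replicate; inconclusive means no clear call; three in four hits are not shown here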
Target sequence (Q9HCT0 whole entry, looked up): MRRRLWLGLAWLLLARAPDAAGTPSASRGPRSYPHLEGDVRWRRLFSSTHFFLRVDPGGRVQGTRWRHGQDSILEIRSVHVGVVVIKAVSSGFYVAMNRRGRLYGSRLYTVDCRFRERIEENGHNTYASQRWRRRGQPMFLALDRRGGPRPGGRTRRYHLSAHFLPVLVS
Beta cell apopt: blocks beta cell apoptosis | INS-1E cytokine-induced death, ATP luminescence, 48 h; percent of positive-control rescue, neutral wells zero | protection from apoptosis, % (test concentration not listed) | 0.8% of 300,000 active | AID 435005;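 active means all replicates at 75% or more, or half of them and the mean; inconclusive means half reach 75% but not the mean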;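 further: 0% = cytokine-treated negative control wells and 100% = positive control rescue; higher means more ATP so stronger rescue from cytokine killing; wells of about 40 µL received 100 nL stock; the first replicate is given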
Ecoli rRNA inh: inhibitors of bacterial rRNA selective over humanized ribosomes; 1.6% of 350,000 active; GFP signal change (wild-type ribosome), % (concentration not given with the values); E. coli WT GFP vs humanized-ribosome RFP mutants, fluorescence, 24 h; active compounds read low; DMSO median 0, no signal -100;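 active means significant combined selectivity score with lowered wild-type GFP, culture density cut under 30%, mutant RFP and density less affected; inactive means any of these conditions unmet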; further: one replicate is shown; some compounds called inactive have numbers as strong as hits
T cruzi repl: T. cruzi replication inhibition; T. cruzi beta-gal in NIH3T3, luminescence, 90 h; inhibition, % (no concentration beside the values); 1.4% of 300,000 active;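 active means mean inhibition across valid replicates above about 55%, limit read from the data; inconclusive means mean below that limit but half or more replicates reach it; inactive means mean below it, under half of replicates reach it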;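 further: signal also drops with host cell toxicity which is not excluded here; 0% = plate median of DMSO wells and 100% = zero luminescence signal; higher percent means less beta-gal luminescence so fewer parasites; stock transfer was 50 nL into about 50 µL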
Ecoli rRNA inh OD600: recorded beside Ecoli rRNA inh, whose call it bears; OD600 change, %; measured here: OD600 growth;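 optical density of the mix in the first replicate; 0 = DMSO median and -100 = no signal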
Ecoli rRNA inh RFP: also measured in Ecoli rRNA inh; calls as there; RFP signal change, %; measured here: RFP humanized mutant strains;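 first replicate; 0 = DMSO median and -100 = no signal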
The depositor's hits bear a star; i = inactive; u = inconclusive; x = not tested or not shown; + = active, no number.

The line under a structure holds: Calb FLC, AF4-AF9 inh, RanGTP-Impb inh, ALR H2O2 inh, FGF22 binding, Beta cell apopt, Ecoli rRNA inh, Ecoli rRNA inh OD600, Ecoli rRNA inh RFP, T cruzi repl
CCc1ccc(OCC(=O)NNC(=O)c2nn(CC)c(=O)c3ccccc23)cc1
    2, -1.6, -3.5, 0, i, 0, 13, 4, 0.8, 2
O=C(N[C@@H](Cc1ccc(O)cc1)C(=O)O)c1ccc(C(F)(F)F)cc1
    -11, -4.9, -6.7, 21, i, -4, 17, 6, -4.2, -42
COc1cc(C(=O)N2CCN(C(=O)C3COc4ccccc4O3)CC2)cc(OC)c1OC (stereo not drawn)
    -2, 1.9, 2.9, -30, i, 4, 0, 2, -1.5, 1
CC(C)(C)c1csc(NC(=O)c2ccc(Cl)s2)n1
    -1, x, -1.5, 5, x, 20, x, x, x, 12
CCOc1ccc(-n2cnnn2)cc1S(=O)(=O)N1CCC(C)CC1C (stereo not drawn)
    -11, 1.0, -7.4, -3, i, -1, -20, -20, -0.8, 1
Cc1cccc(N=C2NC(=O)/C(=C/c3cccs3)S2)c1
    14, -2.0, 3.2, -8, i, x, 11, 3, 1.3, -11
COc1ccc(S(=O)(=O)N(C)C)cc1NCC(=O)Nc1ccc(Br)c(C)c1
    -13, 2.9, -4.6, -1, i, 3, -5, 4, 5.3, 13
COC(=O)c1c(NC(=O)C(=O)NCCCN2CCOCC2)sc2c1CCC2
    5, 13, u, 44, i, -8, 0, 1, 1.9, 14
CCn1c(=O)c2cc(C(=O)Nc3ccc(OC)cc3OC)sc2c2ccccc21
    -4, -3.6, 1.2, -6, i, 1, 6, 2, -1.5, -18
Cc1cc(Cl)ccc1OC(C)C(=O)Nc1ccccc1N1CCOCC1 (stereo not drawn)
    14, x, -1.1, 1, x, 14, x, x, x, 9
CC1CN(C2CCN(S(=O)(=O)Cc3ccccc3)CC2)CC(C)O1 (stereo not drawn)
    -8, x, u, -9, x, -9, x, x, x, 9
O=C(O)c1ccccc1-c1ccccc1C(=O)Nc1nccs1
    -8, -0.1, -1.5, -15, i, 1, 11, 9, 1.0, -3
CCC(C)(C)n1nnnc1C(c1ccccc1OC)N1CCN(C(=O)c2ccco2)CC1 (stereo not drawn)
    -6, -2.3, 0.5, -2, i, 1, 1, -12, 3.9, 7
O=C(Nc1cccc(NC(=O)c2cccc(Cl)c2)c1)c1cccnc1
    11, -1.7, 3.4, 4, i, -3, -18, -10, -2.5, -9
O=C(COc1cccnc1[N+](=O)[O-])Nc1cc(S(=O)(=O)N2CCCCC2)ccc1Cl
    -6, -4.9, 2.6, -6, i, 10, 5, 3, -2.7, -4
CCCn1nc(NS(=O)(=O)c2cccc3nonc23)c2cc3cccc(C)c3nc21
    7, 2.5, 5.5, 97*, i, -1, -6, -35, -3.7, -7
O=C(C1CCN(C2CC(=O)N(c3cccc(Cl)c3)C2=O)CC1)N1CCCC1 (stereo not drawn)
    -4, x, 11, 2, x, 1, x, x, x, x
Cc1ccc(OCCC(=O)OCC(=O)NC2CCCC2)cc1
    5, 0.2, u, 11, i, -2, 1, 5, -3.5, 6
Cc1ccc2c(c1)c1c(n2CC2COC(C)(C)O2)C(=O)CCC1 (stereo not drawn)
    -29, x, -0.7, -20, x, -9, x, x, x, 4
CN(c1cccc(Cl)c1)S(=O)(=O)c1cccc(C(=O)NCc2ccncc2)c1
    x, 2.6, x, -5, i, -1, -35, -38, -8.5, x
COc1ccc(C(=O)N2CCCCC2)cc1S(=O)(=O)Nc1cccc(C(=O)O)c1
    11, -1.2, 0.5, -5, +, -3, 15, 6, 0.3, -5
COc1cccc(/C=N/NC(=O)Cn2cnc3c2c(=O)n(C)c(=O)n3C)c1
    2, 0.3, -4.7, -2, i, -2, 11, 14, 0.5, -5
NC(=O)Nc1ccc(C(=O)OCC(=O)N2CCCC2=O)cc1
    x, 8.1, x, -1, i, 2, 7, -2, -3.4, x
Cc1c(C(=O)O)oc2ccc(S(=O)(=O)NC3CCCCCCC3)cc12
    -10, 6.0, 4.3, 6, i, -7, -29*, -9.2*, 2.2*, -35
CC(=O)c1cccc(NC(=O)CSc2nnc(C(C)N(C)C)n2Cc2ccccc2)c1 (stereo not drawn)
    2, 3.6, 6.1, x, i, -20, -1, -6, -1.0, 5
CCCC1CC(CSC(=N)N)OC1=O (stereo not drawn)
    -6, x, -0.1, 3, x, -26, x, x, x, -11
COc1cc(SC)ccc1C(=O)NCCOc1ccc(C)c(C)c1
    -3, -81, 0.3, -13, i, -5, x, x, x, 10
N=c1c(C(=O)NCc2ccco2)cc2c(=O)n3ccccc3nc2n1Cc1ccccc1
    0, x, 117*, x, x, 14, x, x, x, 4
O=C(NCc1ccc(Cl)cc1)C1CCN(S(=O)(=O)c2cccs2)CC1
    8, -1.7, 5.0, -3, i, 4, x, x, x, 14
CCOC(=O)C1CCCN(C(=O)c2cc(-c3ccccc3)nc3ccccc23)C1 (stereo not drawn)
    18, -3.2, 5.2, 1, i, -1, 6, 7, 4.1, 29
O=C(/C=C\c1ccco1)NC(=S)Nc1ccccc1O
    12, 3.0, 1.9, 58, i, -1, -4, -4, -1.8, 2
CN(Cc1ccccc1N1CCCC1)C(=O)c1cc2ccccc2o1
    x, 5.4, x, 46, x, -27, 0, -1, 4.6, x
Cc1ccccc1OCCC(=O)OCC(=O)Nc1c(C)nn(-c2ccccc2)c1C
    0, -2.5, 7.4, 1, i, -5, 5, 6, 2.6, -8
Cc1cc(C)cc(NC(=O)Nc2cc(-c3ccccc3)nn2C)c1
    -2, -0.9, u, -5, i, -4, -6, -5, 0.3, 9
O=C(CCC1CCCN(C(=O)c2ccc3cc[nH]c3c2)C1)N1CCN(c2ccccn2)CC1 (stereo not drawn)
    -8, -1.7, 2.8, 3, i, -7, -15, -16, -4.6, 14
COc1cc(C(=O)NCC(c2ccco2)N(C)C)cc(OC)c1OC (stereo not drawn)
    -10, 2.0, -0.7, -7, i, -2, x, x, x, -3
COc1ccccc1NC(=O)CCNS(=O)(=O)c1ccc2[nH]c(=O)oc2c1
    -10, 0.1, 0.2, 1, i, -10, 11, 13, 3.0, -3
COCCN1Cc2cccc(C(=O)NCc3ccccc3OC)c2C1=O
    -9, x, 5.3, -2, x, -6, x, x, x, 10
Cc1ccnc(N2CCC(C(=O)NC3CCCCCC3)CC2)n1
    -32, x, 1.9, -3, x, 4, x, x, x, 4
CC(C)n1cnc2c(NCc3ccccc3)nc(NCc3ccccc3)nc21
    -11, -4.2, -1.0, 12, i, -1, -18, -12, -15, 34
Cc1cccn2c(=O)c3cc(C(=O)N(C)C)n(C)c3nc12
    1, x, -5.3, -9, x, -4, x, x, x, 2
O=C(COc1ccccc1)Nc1ccncc1Cl
    11, 0.9, 3.4, -2, i, -7, 3, 0, 1.3, 1
COc1cc(/C=C2\C(=O)ON=C2c2ccccc2)cc(OC)c1OC
    8, x, 6.7, 11, x, -1, x, x, x, -24
CC(=O)c1ccc(OCCCC(=O)NCCc2ccc(C(F)(F)F)cc2)cc1
    2, -1.8, -0.6, -2, i, 4, 4, 9, 1.5, 2
O=C(CCl)N1CCN(S(=O)(=O)c2ccc3ccccc3c2)CC1
    -4, 2.0, -2.8, -5, i, x, 3, 2, -0.7, u
O=C(CC1C(=O)NCCN1Cc1c(F)cccc1Cl)NCCCOc1cccnc1 (stereo not drawn)
    6, 2.7, 4.5, -35, i, -3, 16, 2, 3.2, -7
O=C(NC1CC2CCCC(C1)N2Cc1ccccc1)c1ccc([N+](=O)[O-])cc1 (stereo not drawn)
    0, -1.4, 3.2, -12, i, -3, 18, 13, 2.9, 4
CN(C)S(=O)(=O)c1cccc(NC(=O)COC(=O)/C=C/c2ccc(Br)o2)c1
    -12, 1.6, -1.7, 2, i, -5, -24, -29, 1.9, 5
O=C(NC12CC3CC(CC(C3)C1)C2)c1ccc(=O)oc1
    -2, x, -1.3, x, x, 1, x, x, x, -2
Cc1cccc(NC(=O)COc2ccc(Br)cc2C)n1
    4, x, 1.9, -4, x, -10, x, x, x, -4
Cc1nnc(SCC(=O)NC2CCCCCC2)n1N
    x, 0.7, x, 2, i, -11, 11, 20, -1.8, x
CNC(=S)NNc1nc(C)cc(C)n1
    1, -12, 4.5, x, i, 3, 1, -3, -2.3, -2
Cc1ccccc1C(=O)NC1CCN(C(=O)Nc2ccc(F)cc2)CC1
    2, -6.9, -1.5, 3, i, 1, 3, 15, 0.2, -2
CCC(=O)NCCc1nc2ccccc2n1Cc1ccc(C)cc1
    14, x, 3.2, -18, x, -6, x, x, x, 7
O=C(C1CC1)N1CCc2cc(Br)cc(S(=O)(=O)NCCCN3CCCCC3)c21
    2, -7.4, 2.6, -13, i, 0, -1, 1, 0.7, 4
COc1ccccc1N(CC(=O)NCCSCc1cccc(C)c1)S(=O)(=O)c1ccccc1
    9, 0.5, -0.4, -3, i, 0, -16, -15, 0.6, 15
O=C(O)c1cc(-c2cc(C(=O)O)c3ccccc3n2)nc2ccccc12
    3, x, 3.3, -3, x, -8, x, x, x, -8
Cc1ccc(Sc2c(C)nn(C(=O)c3cccc(S(=O)(=O)N4CCOCC4)c3)c2C)cc1
    23, x, 8.3, -15, x, -12, x, x, x, -7
Cc1csc2nc(O)c(C(=O)NCCN3CCOCC3)c(=O)n12
    1, -21, 2.2, 8, i, -5, 11, 9, -0.1, -12
CCOC(=O)COc1nc(-c2ccccc2)cc(-c2ccco2)c1C#N
    6, x, 1.1, -6, i, -10, 6, -1, 5.0, 1
O=S(=O)(c1ccc(NC(=S)N2CCN(c3ccccc3F)CC2)cc1)N1CCOCC1
    -1, 1.7, -0.1, 2, i, -3, -5, -8, 2.3, -22
CCc1ccccc1NNC(=O)CCc1ccccc1
    -26, -2.3, 1.3, 19, i, 2, 8, 18, 0.8, 6

Some of the compounds tested. The share of hits here may be higher or lower than overall.
